# Ecoli rRNA inh = reduced GFP signal of wild-type E. coli, primary screen, bacterial rRNA inhibitor project, GFP/RFP fluorescence, OD600, single point | E. coli WT GFP vs humanized-ribosome RFP mutants, 24 h; active compounds read low; DMSO median 0, no signal -100 | GFP signal change (wild-type ribosome), % (test concentration not listed) | 350,000 tested, 1.6% active;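 active = significant combined selectivity score with lowered wild-type GFP, culture density cut under 30%, mutant RFP and density less affected; inactive = any of these conditions unmet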; also: one replicate is shown; some compounds called inactive have numbers as strong as hits
# AF4-AF9 inh = inhibitors of AF4 peptide binding to AF9, primary screen, biochemical, AlphaScreen, biotin-AF4 peptide, FLAG-AF9, single point; inhibition, % at 10 µM; 350,000 tested, 0.47% active; AID 651704, 2012;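 active = every replicate reaching a set inhibition limit, whatever the replicate mean, cut at about 25% in these data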;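 also: 0% = plate neutral control median and 100% = total signal loss; the record names both 10 and 1 µM as test concentration; the first replicate is given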
# Target sequence (P42568 whole entry, looked up): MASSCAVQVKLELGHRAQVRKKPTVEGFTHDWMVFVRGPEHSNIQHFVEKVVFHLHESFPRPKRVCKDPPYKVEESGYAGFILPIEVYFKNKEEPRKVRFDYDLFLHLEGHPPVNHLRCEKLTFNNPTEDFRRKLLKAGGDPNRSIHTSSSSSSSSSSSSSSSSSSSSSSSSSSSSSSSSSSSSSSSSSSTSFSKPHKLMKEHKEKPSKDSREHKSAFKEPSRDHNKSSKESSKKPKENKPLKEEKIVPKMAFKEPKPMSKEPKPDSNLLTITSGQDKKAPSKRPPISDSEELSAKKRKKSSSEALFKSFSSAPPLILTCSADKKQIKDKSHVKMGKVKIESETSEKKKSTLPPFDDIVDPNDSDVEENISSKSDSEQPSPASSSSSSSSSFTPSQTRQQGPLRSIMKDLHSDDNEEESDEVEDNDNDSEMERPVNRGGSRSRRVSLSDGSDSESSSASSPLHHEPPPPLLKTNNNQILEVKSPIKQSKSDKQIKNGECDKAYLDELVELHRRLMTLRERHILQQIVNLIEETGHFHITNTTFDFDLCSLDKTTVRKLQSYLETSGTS
# Ecoli rRNA inh OD600 = second read-out of Ecoli rRNA inh, no call of its own (marks repeat the call); OD600 change, %; measured here: OD600 growth;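 optical density of the mix in the first replicate; 0 = DMSO median and -100 = no signal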
# Ecoli rRNA inh RFP = further read-out of Ecoli rRNA inh, marked with its call; RFP signal change, %; measured here: RFP humanized mutant strains;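 first replicate; 0 = DMSO median and -100 = no signal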
# The depositor's hits bear a star. A portion of the library; count on the stated rates, not on these rows.
nr	Structure	Ecoli rRNA inh	Ecoli rRNA inh OD600
1	COc1ccc(NC(=O)Nc2cccc3c2O[C@H](CN(C)Cc2ccc(C(=O)O)cc2)[C@H](C)CN([C@@H](C)CO)C3=O)cc1	2	-4
2	CCCCCNC(=O)C(c1ccc(OC)cc1)n1c(=O)c(-c2cc3ccccc3[nH]2)nc2ccccc21 (configuration not stated)	15	11
3	CO[C@H]1CC[C@@H]2CCOc3c(C#N)cccc3C(=O)N(C)CCCC(=O)N(C)C[C@@H]1O2	4	5
4	O=C(N[C@H]1CC[C@@H](CCNC(=O)C2CC2)O[C@@H]1CO)c1ccncc1	3	8
5	CC(C)CN(C[C@H]1[C@H](c2ccccc2)[C@@H](CO)N1C(=O)C1CCC1)C(=O)C1CC1	1	1
6	COc1cccc(-c2cnc3c(c2)C(=O)N([C@@H](C)CO)C[C@@H](C)[C@H](CN(C)Cc2ccc(F)cc2)O3)c1	-1	-31
7	CN1CCN(C(=O)C[C@H]2C[C@@H]3c4cc(NC(=O)CC5CC5)ccc4O[C@@H]3[C@@H](CO)O2)CC1	2	5
8	COc1ccc2c3c([nH]c2c1)[C@H](CO)N(C(=O)c1cccnc1)CC31CN(C(=O)c2cccnc2)C1	0	4
9	CO[C@H]1CN(C)C(=O)c2cc(NC(=O)C3CCCCC3)ccc2OC[C@H](C)NC[C@@H]1C	0	2
10	C[C@@H]1CN([C@H](C)CO)C(=O)c2c(c3ccccc3n2C)-c2ccccc2CO[C@H]1CN(C)C(=O)[C@@H](Cc1ccccc1)N(C)C	1	4
11	CCOC(=O)C1(C)CCN1C(=O)c1ccoc1 (configuration not stated)	7	18
12	COC(=O)C[C@H]1CC[C@@H]2[C@@H](COc3ccc(NS(=O)(=O)c4cccc(F)c4)cc3C(=O)N2C)O1	-5	-11
13	C[C@@H]1CN([C@H](C)CO)C(=O)c2cccc(NC(=O)Nc3ccc4c(c3)OCO4)c2O[C@H]1CN(C)Cc1ccc(C(=O)Nc2ccccc2N)cc1	-5	-13
14	COc1ccc(CN(C)C[C@H]2OCCCC[C@@H](C)Oc3ccc(NC(=O)CCC(F)(F)F)cc3C(=O)N([C@H](C)CO)C[C@@H]2C)cc1	3	2
15	COc1cccc(-c2ccc([C@@H]3[C@@H](CO)N4C(=O)CN(C(=O)CN5CCOCC5)C[C@H]34)cc2)c1	3	-3

nr	Ecoli rRNA inh RFP	AF4-AF9 inh
1	-2.3	-0.3
2	4.7	-15
3	0.1	1.8
4	-1.2	-3.3
5	0.2	-6.2
6	22	8.4
7	-1.0	-4.4
8	-1.9	-3.4
9	-2.2	1.3
10	-1.1	15
11	0.1	-0.9
12	5.2	-1.8
13	-2.6	0.2
14	-0.6	-2.3
15	-3.5	-1.5

# Additional structures
nr	Structure	Ecoli rRNA inh	Ecoli rRNA inh OD600
16	CCCc1ccc(C(O)c2ncc(-c3ccc(C)cc3)[nH]2)cc1 (configuration not stated)	-4	-1
17	CCC(=O)N1[C@H](CO)[C@H](c2ccccc2)[C@H]1CNC(=O)CN1CCOCC1	4	15
18	C[C@@H]1CN([C@@H](C)CO)C(=O)c2cc(C#CCN(C)C)cnc2O[C@H]1CN(C)C(=O)Cc1ccncc1	3	6
19	O=C(C[C@@H]1CC[C@H]2[C@@H](COC[C@H](O)CN2CC2CCCCC2)O1)NCC1CC1	2	20
20	Cc1nc2c(OCc3ccc(F)c(F)c3)cccn2c1N(C)C(=O)CCC1CCCC1	-25	-38
21	CC(C)NC(=O)N1CCCCN2[C@@H](CO)[C@@H](c3ccc(C#Cc4ccccc4)cc3)[C@@H]2C1	-44	-66
22	C[C@H]1CN([C@@H](C)CO)S(=O)(=O)c2ccc(C3=CCCCC3)cc2O[C@H]1CN(C)C(=O)C1CC1	-3	-13
23	COC(=O)C[C@H]1CC[C@@H]2[C@H](COC[C@@H](O)CN2C(=O)Nc2ccccc2OC)O1	7	3
24	O=C(c1ccccc1F)N1C[C@@H]2[C@H](c3ccccc31)[C@@H](CO)N2C(=O)c1ccncc1	2	13
25	O=C(C[C@@H]1CC[C@H]2[C@@H](COC[C@H](O)CN2Cc2ccc3c(c2)OCO3)O1)Nc1ccccc1	-6	-9
26	C/C=C/c1ccc([C@@H]2[C@H](CO)N(C(=O)CC)C23CN(S(C)(=O)=O)C3)cc1	1	-10
27	COc1cccc(S(=O)(=O)N[C@@H]2CC[C@H](CCNC(=O)Cc3ccncc3)O[C@H]2CO)c1	2	6
28	O=C(NC1CCCC1)[C@@H]1[C@@H](CO)[C@@H]2Cn3c(ccc(-c4ccccc4)c3=O)[C@H]1N2CC1CC1	-3	-4
29	CCCN(C)C[C@H]1OCCCC[C@H](C)Oc2ccc(NC(=O)Cc3ccccc3)cc2C(=O)N([C@H](C)CO)C[C@H]1C	6	6
30	C[C@@H]1CN([C@@H](C)CO)C(=O)c2cc(C#C[C@@H](C)O)cnc2O[C@H]1CN(C)Cc1cccc(C(=O)O)c1	2	7

nr	Ecoli rRNA inh RFP	AF4-AF9 inh
16	2.6	-2.4
17	-3.0	-1.9
18	0.0	-0.9
19	-2.1	-6.0
20	-5.2	-6.3
21	4.2	0.6
22	7.2	4.6
23	-3.2	-1.1
24	1.1	1.5
25	-3.5	-0.8
26	-2.1	0.7
27	-1.1	0.9
28	-1.1	-2.3
29	2.8	-4.0
30	-2.2	-9.2

# (continued)
nr	Structure	Ecoli rRNA inh	Ecoli rRNA inh OD600
31	COc1ccc(C#Cc2ccc([C@@H]3[C@@H](CO)N4C(=O)CN(C(=O)c5cccnc5)C[C@H]34)cc2)cc1	2	-2
32	CCCN1C[C@@H](C)[C@@H](OC)CN(C)C(=O)c2ccc(NS(C)(=O)=O)cc2OC[C@H]1C	-1	0
33	CCN(C(=O)COC(=O)c1ccc(-n2c(C)ccc2C)cc1)c1c(N)n(Cc2ccccc2)c(=O)[nH]c1=O	10	19
34	COc1cccc(C#Cc2ccc3c(c2)O[C@H](CN(C)C(C)=O)[C@@H](C)CN([C@@H](C)CO)S3(=O)=O)c1	-6	-28
35	CC(=O)Nc1cccc(-c2ccnc3c2CC(C)(C(=O)NCc2ccc(N(C)C)cc2)O3)c1 (configuration not stated)	-11	-5
36	C[C@@H]1CCCCO[C@H](CN(C)C(=O)C2CCCCC2)[C@@H](C)CN([C@H](C)CO)C(=O)c2cc(NC(=O)Nc3ccc(C(F)(F)F)cc3)ccc2O1	5	4
37	CCc1cnc(N2[C@@H](C#N)[C@H](c3ccc(C#Cc4ccccc4F)cc3)[C@@H]2CO)s1	3	10
38	O=C(C[C@H]1C[C@H]2c3cc(NC(=O)Cc4ccncc4)ccc3O[C@H]2[C@H](CO)O1)NCCc1ccccc1	-2	7
39	C[C@H](CO)N1C[C@H](C)[C@@H](CN(C)C(=O)Nc2cccc3ccccc23)OCCCC[C@H](C)Oc2ccc(NC(=O)Nc3cccc4ccccc34)cc2C1=O	1	3
40	Cc1ccccc1S(=O)(=O)N1[C@@H](C#N)[C@H](c2ccccc2)[C@@H]1CO	1	11
41	C[C@@H](O)C#Cc1cnc2c(c1)C(=O)N([C@@H](C)CO)C[C@H](C)[C@H](CN(C)Cc1cncnc1)O2	5	4
42	CCCN1C[C@H](C)[C@@H](OC)CN(C)C(=O)c2cc(NC(=O)NC3CCCCC3)ccc2OC[C@@H]1C	-3	-9
43	COc1ccc(S(=O)(=O)N(C)C[C@@H]2Oc3c(NC(=O)C4CC4)cccc3C(=O)N([C@H](C)CO)C[C@@H]2C)cc1	-1	5
44	C[C@@H]1CCCCO[C@H](CN(C)S(=O)(=O)c2ccccc2)[C@@H](C)CN([C@H](C)CO)C(=O)c2cc(NS(C)(=O)=O)ccc2O1	1	0
45	CC(C)NC(=O)N(C)C[C@@H]1OCCCC[C@@H](C)Oc2ccc(NS(=O)(=O)c3cn(C)cn3)cc2C(=O)N([C@H](C)CO)C[C@@H]1C	7	14

nr	Ecoli rRNA inh RFP	AF4-AF9 inh
31	-0.7	7.9
32	1.5	-3.6
33	-1.6	-5.2
34	3.0	2.0
35	13	22
36	-0.4	-0.8
37	-0.3	-6.3
38	-2.7	0.4
39	1.9	-3.3
40	-2.9	1.5
41	-3.4	-1.5
42	3.0	0.7
43	1.9	-0.4
44	-0.4	-2.2
45	-0.6	-4.4

# (next part)
nr	Structure	Ecoli rRNA inh	Ecoli rRNA inh OD600
46	C[C@@H]1CCCCO[C@H](CN(C)Cc2ccc(C(=O)O)cc2)[C@@H](C)CN([C@H](C)CO)C(=O)c2cc(NC(=O)Cc3ccccc3)ccc2O1	6	4
47	C[C@@H]1CN([C@H](C)CO)C(=O)c2cc(C#CC3(O)CCCC3)cnc2O[C@@H]1CN(C)C(=O)Nc1ccc2c(c1)OCO2	4	4
48	C[C@@H]1CN([C@@H](C)CO)C(=O)Cc2cc(NS(=O)(=O)c3ccc(F)cc3)ccc2O[C@H]1CN(C)S(C)(=O)=O	3	10
49	O=S(=O)(NC[C@@H]1N[C@H](CO)[C@@H]1c1ccc(C2=CCCC2)cc1)c1ccccc1	-5	-10
50	CC=Cc1ccc2n(c1=O)C[C@H]1[C@H](CO)[C@@H](C(=O)NCCC)N(Cc3cccnc3)[C@@H]21 (mixture of isomers)	1	-1
51	C[C@@H]1CN([C@H](C)CO)C(=O)c2cc(N(C)C)ccc2O[C@H]1CN(C)S(=O)(=O)c1ccccc1	0	1
52	Cc1ccc(S(=O)(=O)Nc2cccc3c2O[C@@H](CN(C)C(=O)Nc2c(C)noc2C)[C@@H](C)CN([C@H](C)CO)C3=O)cc1	1	-2
53	Cc1cc(C(=O)Nc2cccc3c2O[C@@H](CN(C)C(=O)Nc2ccc4c(c2)OCO4)[C@H](C)CN([C@@H](C)CO)C3=O)n(C)n1	1	10
54	CN1C(=O)c2cc(NC(=O)C3CCCCC3)ccc2OC[C@@H]2O[C@@H](CC(=O)NCC3CCCCC3)CC[C@H]21	-4	-9
55	O=C(NC[C@@H]1[C@H](c2ccccc2)[C@@H](CO)N1C(=O)C1CC1)NC1CCCC1	-2	1
56	C[C@H](CO)N1C[C@H](C)[C@H](CN(C)CC2CC2)Oc2c(cccc2N(C)C)C1=O	-1	7
57	C[C@@H]1CN([C@H](C)CO)C(=O)c2cc(NS(=O)(=O)c3cn(C)cn3)ccc2O[C@H]1CN(C)C	-2	10
58	C[C@H]1CN([C@@H](C)CO)C(=O)c2cc(NC(=O)Nc3ccc(C(F)(F)F)cc3)ccc2O[C@@H]1CN(C)C(=O)Nc1ccc(C(F)(F)F)cc1	1	-2
59	CCC(CC)C(=O)N(C)c1c(C)nc2c(OCc3ccccc3OC)cccn12	0	-10
60	CN1CCCCN2[C@@H](CO)[C@@H](c3ccc(C4=CCCC4)cc3)[C@@H]2C1	8	5

nr	Ecoli rRNA inh RFP	AF4-AF9 inh
46	-3.5	0.8
47	-1.9	-5.8
48	0.8	-0.9
49	5.2	-0.7
50	-0.5	-0.2
51	-1.2	-0.6
52	-3.6	-12
53	-2.6	-3.5
54	1.2	-1.7
55	-3.1	-19
56	1.2	-2.9
57	-1.2	-1.7
58	-0.4	-3.3
59	-5.6	2.7
60	2.0	6.9

# Later entries.
nr	Structure	Ecoli rRNA inh	Ecoli rRNA inh OD600
61	CO[C@H]1CN(C)C(=O)c2cc(NS(=O)(=O)c3ccc(Oc4ccccc4)cc3)ccc2OC[C@H](C)NC[C@@H]1C	-3	-3
62	CN(C)c1ccc(-c2cccc3nccn23)cc1	4	6
63	CCCC(=O)Nc1ccc2c(c1)C(=O)N(C)[C@@H]1CC[C@@H](CC(=O)N3CCCCC3)O[C@H]1CO2	0	9
64	CCCNC(=O)C[C@@H]1CC[C@H]2[C@H](COc3ccc(NC(=O)NCC)cc3C(=O)N2C)O1	-1	-6
65	O=C(Nc1ccccc1)N1CC(=O)N2[C@H](CO)[C@H](c3ccc(C#Cc4cccnc4)cc3)[C@H]2C1	-2	15
66	COC(=O)[C@H]1[C@H](CO)[C@H]2Cn3c(ccc(-c4ccccc4F)c3=O)[C@H]2N1C(=O)CC1CC1	-1	1
67	CO[C@H](CN(C)C(=O)c1ccccc1F)[C@@H](C)CN([C@H](C)CO)S(=O)(=O)c1ccc(F)cc1	-1	2

nr	Ecoli rRNA inh RFP	AF4-AF9 inh
61	9.7	-5.5
62	-1.4	8.1
63	-2.0	-0.9
64	-3.4	0.2
65	-0.1	-3.0
66	-3.4	-1.8
67	2.0	-2.7

# Three structures out of the list, sorted by heavy-atom count, ascending.
nr	Structure	Ecoli rRNA inh	Ecoli rRNA inh OD600
26	C/C=C/c1ccc([C@@H]2[C@H](CO)N(C(=O)CC)C23CN(S(C)(=O)=O)C3)cc1	1	-10
17	CCC(=O)N1[C@H](CO)[C@H](c2ccccc2)[C@H]1CNC(=O)CN1CCOCC1	4	15
20	Cc1nc2c(OCc3ccc(F)c(F)c3)cccn2c1N(C)C(=O)CCC1CCCC1	-25	-38

nr	Ecoli rRNA inh RFP	AF4-AF9 inh
26	-2.1	0.7
17	-3.0	-1.9
20	-5.2	-6.3

# Of the compounds above, three have a cyano group:
nr	Structure	Ecoli rRNA inh	Ecoli rRNA inh OD600
3	CO[C@H]1CC[C@@H]2CCOc3c(C#N)cccc3C(=O)N(C)CCCC(=O)N(C)C[C@@H]1O2	4	5
37	CCc1cnc(N2[C@@H](C#N)[C@H](c3ccc(C#Cc4ccccc4F)cc3)[C@@H]2CO)s1	3	10
40	Cc1ccccc1S(=O)(=O)N1[C@@H](C#N)[C@H](c2ccccc2)[C@@H]1CO	1	11

nr	Ecoli rRNA inh RFP	AF4-AF9 inh
3	0.1	1.8
37	-0.3	-6.3
40	-2.9	1.5

# Assay outcomes from PubChem BioAssay.
